GALR2 agonist: GALR2 (human) receptor agonism | O43603 | GALR2-expressing cells, agonist activation read-out | AID 803 | activation, %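 (tested at 5 µM)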 | 140,000 compounds, 0.48% hits;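 active means above mean plus 3 SD of all compounds, about 5% in these data, not always enough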;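 further: 0% = vehicle buffer wells and 100% = reference agonist at full effect; tested in CHO reporter cells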
PKD1 inh: PKD1 (human) kinase inhibition; 200,000 compounds, 0.056% hits; inhibition, %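 (about 10 µM by stock and volumes)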; PKD1 kinase fluorescence polarization assay; Q15139;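 active means inhibition of 50% or more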;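 further: controls were vehicle for no effect and a reference inhibitor for full effect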
Target sequence (Q15139 whole entry, looked up): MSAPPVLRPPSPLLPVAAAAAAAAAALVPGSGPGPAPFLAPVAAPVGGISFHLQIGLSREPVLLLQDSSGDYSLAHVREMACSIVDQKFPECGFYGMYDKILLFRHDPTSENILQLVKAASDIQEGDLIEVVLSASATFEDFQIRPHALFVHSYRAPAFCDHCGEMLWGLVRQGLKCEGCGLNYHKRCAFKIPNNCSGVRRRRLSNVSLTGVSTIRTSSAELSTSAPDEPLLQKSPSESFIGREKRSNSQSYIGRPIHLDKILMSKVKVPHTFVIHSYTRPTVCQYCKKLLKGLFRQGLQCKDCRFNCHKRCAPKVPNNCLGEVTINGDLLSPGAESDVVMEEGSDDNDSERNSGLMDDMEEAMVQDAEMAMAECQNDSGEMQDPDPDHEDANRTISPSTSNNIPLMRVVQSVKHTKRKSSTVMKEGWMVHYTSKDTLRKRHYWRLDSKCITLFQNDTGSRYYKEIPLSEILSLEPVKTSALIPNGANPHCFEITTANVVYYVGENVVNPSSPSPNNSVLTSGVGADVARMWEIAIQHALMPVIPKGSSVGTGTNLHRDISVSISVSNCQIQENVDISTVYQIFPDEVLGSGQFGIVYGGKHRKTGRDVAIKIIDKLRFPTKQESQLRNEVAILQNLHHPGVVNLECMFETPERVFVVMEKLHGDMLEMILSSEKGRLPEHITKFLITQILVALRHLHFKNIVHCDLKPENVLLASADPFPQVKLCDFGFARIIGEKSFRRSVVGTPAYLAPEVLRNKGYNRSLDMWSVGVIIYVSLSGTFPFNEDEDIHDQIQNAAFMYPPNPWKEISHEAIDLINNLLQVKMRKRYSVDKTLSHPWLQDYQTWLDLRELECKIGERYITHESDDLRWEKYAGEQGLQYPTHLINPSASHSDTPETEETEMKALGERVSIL
Insulin prom inh: TRM-6 insulin promoter activity inhibition | TRM-6 cells (human fetal islet line), insulin promoter-eGFP reporter, imaging; reporter expression induced with tamoxifen | inhibition, % at 2 µM | 130,000 compounds, 0.9% hits | AID 1273;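 active means inhibition above the mean plus 3 SD, with well images judged a real hit on visual review, cut at about 60% in these data, passing the limit was not always enough; inconclusive means inhibition over the cutoff but images rejected on review; inactive means inhibition not above the cutoff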
HSV replic up: increases HSV replication in cells; maximum fold increase; HSV replication augmentation in cells, fold increase; 220,000 compounds, 0.005% hits;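 active means peak rise of 1.5-fold or more in the series; inconclusive means self-fluorescent or not available for retest; tested in PC3 cells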;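 further: first round at 10 µM; read as green reporter fluorescence; hits show the peak of a series up to 25 µM; 1 = signal of infected wells without compound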
RGS16-Gao HTS: RGS16-Galphao interaction regulator (human); 220,000 compounds, 0.38% hits; bead-based flow cytometry RGS16-Galphao binding, fluorescence; actives lie on both sides; AID 1441; binding response (% of control), % at 10 µM;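 active means below 25% or above 175%, edge rows of some plates excepted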;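 further: Galphao activated by GDP with aluminum fluoride before binding; 100% = wells without compound and 0% = beads without RGS; some results beyond the cut were filed as inactive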
Insulin prom inh cell count: second read-out of Insulin prom inh, no call of its own (marks repeat the call); normalized cell count, %; measured here: cell count, toxicity; reference of the scale not given here;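 cells exposed to compound for 48 h; stained nuclei by imaging scaled within each plate; lower means fewer cells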
HSV replic up primary fold: also measured in HSV replic up; calls as there; fold increase; compound at 10 µM; measured here: primary screen fold increase 10 uM; tested in PC3 cells;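 GFP signal in the first replicate; 1 = infected wells without compound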
* hit, by the source's call; i = inactive; ? = inconclusive; nt = no result given.

The line under a structure holds: HSV replic up	HSV replic up primary fold	PKD1 inh	Insulin prom inh	RGS16-Gao HTS	GALR2 agonist	Insulin prom inh cell count
O=C(NC(NC(=S)Nc1ccc(Cl)cc1Cl)C(Cl)(Cl)Cl)c1cccc([N+](=O)[O-])c1 (configuration not stated)
  i	0.55	-5	10	89	-2.2	127
O=[N+]([O-])c1ccc(S(=O)(=O)N2CCSC2c2ccco2)cc1 (configuration not stated)
  i	1.4	nt	nt	87	nt	nt
O=C(O)C1CCCCC1C(=O)Nc1cccc2ccccc12 (configuration not stated)
  i	1	-2	50	108	-3.6	75
CCOc1ccccc1NC(=O)C1=C(C)NC(=O)NC1c1cccs1 (configuration not stated)
  i	1	-7	nt	103	nt	nt
O=C(O)CSc1nnc(Cn2cnc3ccccc32)n1CCc1ccccc1
  i	0.91	11	-6	108	-0.2	168
O=S(=O)(c1ccc(Cl)cc1)N1CCCC1c1nc2ccccc2s1 (configuration not stated)
  i	0.99	-16	46	100	-1.1	174
Cc1cc(C)cc(OCCCCCNCCO)c1
  i	1.1	-7	16	115	-0.7	148
O=C(c1ccco1)N1CCN(CC(O)Cn2c3ccccc3c3ccccc32)CC1 (configuration not stated)
  i	0.99	5	6	102	1.9	89
CCS(=O)(=O)N1CCN(Cc2c[nH]c3ccccc23)CC1
  i	0.84	-2	nt	111	nt	nt
COc1ccccc1-c1nnc(SCC(=O)c2ccc(C3CCCCC3)cc2)n1Cc1ccco1
  i	1.1	-4	69	94	-1.6	114
COc1ccc(N(C)C(=O)c2cnc(N3CCN(c4ncccn4)CC3)c3ccccc23)cc1
  nt	nt	-4	-30	110	0.0	218
O=C(O)C(CO)N=Cc1c(O)c2ccccc2oc1=O (configuration not stated)
  i	0.91	-11	50	104	nt	144
CCOC(=O)c1ccc(NCc2ccc3c(c2)OCO3)cc1
  i	0.99	-8	-6	110	-1.5	92
Cc1ccc(C(=O)COC(=O)CCC(=O)NC2CCCCC2)cc1[N+](=O)[O-]
  i	1	4	nt	101	nt	nt
Cc1cccc(NC(=O)Cn2nc(C(F)(F)F)cc2C2CC2)c1
  i	0.94	-7	-38	104	-1.0	71
Cc1ccc2ncccc2c1[N+](=O)[O-]
  i	1.1	2	33	148	0.1	81
O=C(CN1CCN(Cc2ccccc2F)C1=O)NCc1ccco1
  i	0.93	-5	-26	92	-1.4	97
Cc1cnc(NC(=O)c2ccc(OCC3CCCO3)cc2)s1 (configuration not stated)
  i	1	-6	33	104	nt	48
O=C(c1ccco1)N1CCCN(C(=O)c2ccco2)CC1
  i	0.76	0	41	93	-3.0	148
O=c1[nH]c(SCc2ccc([N+](=O)[O-])cc2)nc2[nH]ncc12
  i	0.91	9	nt	110	nt	nt
Cc1nc(NC(C)C(=O)O)c2nc(C)oc2n1 (configuration not stated)
  i	0.83	7	-18	105	-2.1	80
CCn1c(=O)c([N+](=O)[O-])c(NCC(O)c2ccccc2)c2ccccc21 (configuration not stated)
  i	1.1	16	-13	26	0.5	78
COc1ccccc1NC(=O)c1c(N=Cc2c(O)ccc3ccccc23)cnn1C
  i	0.74	nt	nt	101	nt	nt
CN(C)c1ccc(C2Nc3ccccc3C(=O)N2NS(=O)(=O)c2ccccc2)cc1 (configuration not stated)
  i	0.91	-4	nt	104	nt	nt
Cc1ccnn2cc3c(=O)n(C)c(=O)n(C)c3c12
  nt	nt	-2	7	90	-1.5	132
COCCN1C=C(C(=O)OC)C(c2cc(Br)c(OC)c(OC)c2)C(C(=O)OC)=C1
  i	0.95	-3	-69	103	9.8	74
O=C(COC(=O)c1ccco1)Nc1cccc(Br)c1
  i	0.93	0	nt	103	-1.0	nt
Cc1nonc1OCCN1CCN(c2ccc([N+](=O)[O-])cc2)CC1
  i	1.1	nt	nt	96	nt	nt
CCc1ccc(-n2cc(-c3ccc([N+](=O)[O-])cc3)[nH]c2=S)cc1
  i	0.97	-10	nt	97	0.1	nt
CC(=O)Nc1ccc(NC(=O)COC(=O)Cc2c[nH]c3ccccc23)cc1
  i	1	6	-7	104	-2.8	109
COc1ccc(S(=O)(=O)Nc2cccc(Cl)c2)cc1OC
  i	0.78	-3	-154	102	-1.2	42
Cc1cc(Cl)ccc1OCC(=O)NN1C(=O)C2C3C=CC(C3)C2C1=O (configuration not stated)
  i	0.96	-8	-25	104	nt	115
CCOc1ccc2[nH]c(=O)c(CN(CCO)C(=O)c3ccc(Br)cc3)cc2c1
  ?	nt	1	nt	97	-0.5	nt
CCCc1cc(-c2n[nH]c(=S)n2CC)cs1
  i	0.96	-5	nt	103	nt	nt
C=CCNc1ncnc2c1[nH]c1ccc(Cl)cc12
  i	0.99	-11	93*	98	-0.1	149*
Cc1ccc(CN2CCN(C(=O)CCN3C(=O)c4ccccc4C3=O)CC2)cc1
  i	0.99	1	-45	92	-2.4	142
O=C(Nn1c(=O)[nH]c2ccsc2c1=O)c1ccccc1
  i	1.2	-1	-3	102	-1.8	111
Cc1cc(C)c(NC(=O)c2sc3nc4c(cc3c2N)C(=O)CC(C)(C)C4)c(C)c1
  i	0.99	-12	43	124	-2.5	105
CCC(=O)Oc1c(-c2ccccc2)c2nc3ccccc3nc2c2ccccc12
  nt	nt	-1	-376	nt	-0.5	49
Fc1ccc(COc2cccc3cccnc23)cc1
  i	0.95	-5	nt	107	nt	nt
COCCN1C(=O)C(CC(=O)Nc2ccc(C(=O)O)cc2)SC1=Nc1ccccc1 (configuration not stated)
  nt	nt	-3	-23	121	0.0	94
NNC(=O)c1cc2c(N3CCC(Cc4ccccc4)CC3)ncnc2s1
  i	0.92	-8	-33	106	nt	138
CC(C)=CCN1CCN(Cc2cnc(N3CCCC3)s2)CC1CCO (configuration not stated)
  i	0.61	1	nt	107	nt	nt
COc1ccc(-n2c(O)c(/C=N/Nc3nc(C)cc(C)n3)c3ccccc3c2=O)cc1OC
  i	0.68	-4	nt	101	nt	nt
O=c1c(O)c(-c2cccs2)oc2ccc(Cl)cc12
  ?	nt	-3	-8	110	-2.3	118
Cc1c(Cl)c([N+](=O)[O-])nn1CC(=O)NC12CC3CC(CC(C3)C1)C2
  i	0.93	-5	-4	98	38*	214
NS(=O)(=O)c1ccc(NC(=O)COC(=O)COc2ccccc2)cc1
  i	1.1	4	17	103	nt	123
CCCN1CCN(C(=S)Nc2ccc([N+](=O)[O-])cc2)CC1
  i	0.95	0	nt	101	-0.7	nt
O=C(C/C=N/OCc1ccc(F)cc1Cl)c1cnc(-c2ccccc2)s1
  i	0.94	-2	-4	99	-3.4	128
CCC(=O)NC(=S)N1CCN(c2ccc([N+](=O)[O-])cc2Cl)CC1
  i	0.92	8	-18	109	0.2	48
Cc1cc(C#N)c2ccccc2n1
  i	1	-1	nt	105	-1.3	nt
CCOc1cc(N2CCOCC2)c(OCC)cc1NC(=O)CN1C(=O)C2CC=CCC2C1=O (configuration not stated)
  i	0.89	4	-57	97	nt	131
COc1ccc2[nH]cc(C(=O)CN3CCC(C)CC3)c2c1
  i	1	1	nt	100	-1.8	nt
Cc1cccc(NC(=S)NNC(=O)CCn2cc(C)cn2)c1
  i	1	1	-57	100	-1.0	130
CC(C)OC(=O)c1ccc(N)cc1
  i	1	4	nt	113	nt	nt
CCOC(=O)c1c(C)oc2cc(Br)c(O)c(Br)c12
  i	0.67	-3	nt	106	-1.4	nt
C/C(CC(=O)Nc1ccccn1)=N\NC(=O)c1ccc(C)cc1
  i	1.1	-8	43	106	-1.0	49
Cc1n[nH]c(C)c1CCC(=O)N/N=C/c1cccs1
  i	1	nt	nt	98	nt	nt
Cc1nn(C)c(C)c1NC(=O)Nc1ccc(Cl)c(Cl)c1
  i	0.92	-3	33	105	nt	125
COC(=O)c1c(NC(C)=O)sc(C)c1C
  i	0.82	1	11	96	nt	122

Whole records, quoted from the list.
`O=C(C/C=N/OCc1ccc(F)cc1Cl)c1cnc(-c2ccccc2)s1` in the list: HSV replic up: i; HSV replic up primary fold: 0.94; PKD1 inh: -2; Insulin prom inh: -4; RGS16-Gao HTS: 99; GALR2 agonist: -3.4; Insulin prom inh cell count: 128
`CC(C)OC(=O)c1ccc(N)cc1` in the list: HSV replic up: i; HSV replic up primary fold: 1; PKD1 inh: 4; Insulin prom inh: nt; RGS16-Gao HTS: 113; GALR2 agonist: nt; Insulin prom inh cell count: nt

(continued)
The line under a structure holds: HSV replic up	HSV replic up primary fold	PKD1 inh	Insulin prom inh	RGS16-Gao HTS	GALR2 agonist	Insulin prom inh cell count
COC(=O)CC1C(=O)NCCN1C(=O)Nc1ccccc1 (configuration not stated)
  i	1.1	-3	nt	101	-1.0	nt
COc1ccc(/C=N/NC(=O)c2cc(C3CC3)[nH]n2)cc1OC
  i	0.92	nt	nt	103	nt	nt
CCOC(=O)C(C)(C)Sc1nc2c(cnn2-c2ccc(Cl)cc2)c(=O)[nH]1
  i	0.98	-11	nt	98	-0.4	nt
NC(=O)N/N=C/c1c(F)c(F)c(F)c(F)c1F
  i	0.86	8	41	101	nt	132
Cn1c(=O)c2c(nc(CN3CCC(C(N)=O)CC3)n2Cc2ccccc2F)n(C)c1=O
  i	0.92	-4	nt	111	-0.1	nt
CCOC(=O)C1=C(C)NC(C)=C(C(=O)OCC)C1C(=O)OC1CCOC1=O (configuration not stated)
  i	0.89	7	32	102	1.0	63
CC1CCCN(C/C(O)=C(\C#N)c2nc3ccccc3[nH]2)C1 (configuration not stated)
  i	0.98	-4	-293	101	-3.2	116
Cc1nn(Cc2ccccc2Cl)c(C)c1NC(=O)c1cc(-c2ccc(F)cc2)on1
  i	0.99	-8	-32	102	-0.1	107
COC(=O)c1ccc(NC(=O)N2CCOCC2)cc1
  i	0.96	4	55	103	-0.1	124
Cc1ccc(OCCCC(=O)Nc2ccc(N3CCOCC3)cc2)c(C)c1
  i	0.98	-5	-8	107	-3.2	54
CCSc1nc2c(c(=O)[nH]1)C(c1cccnc1)C(C(=O)OC(C)C)=C(C)N2 (configuration not stated)
  i	0.86	3	22	109	0.4	52
CCn1c(C(C)NC(=O)c2ccc(OC)c(OC)c2)nc2ccccc21 (configuration not stated)
  i	0.9	-4	23	88	-0.5	60
Cc1cccc(C)c1Nc1c(-c2ccc(N3CCOCC3)cc2)nc2ncccn12
  nt	nt	-13	38	nt	-0.8	99
Cc1cc2cc(CCNC(=O)CC(C)C)c(=O)[nH]c2cc1C
  i	1	14	nt	114	-0.8	nt
CN(CCc1cnn(C)c1)Cc1cn[nH]c1-c1ccc(-c2ccccc2)cc1
  i	0.84	-8	9	107	nt	122

Filtered by structure, the entries above with a cyano group
The line under a structure holds: HSV replic up	HSV replic up primary fold	PKD1 inh	Insulin prom inh	RGS16-Gao HTS	GALR2 agonist	Insulin prom inh cell count
Cc1cc(C#N)c2ccccc2n1
  i	1	-1	nt	105	-1.3	nt
CC1CCCN(C/C(O)=C(\C#N)c2nc3ccccc3[nH]2)C1 (configuration not stated)
  i	0.98	-4	-293	101	-3.2	116

(listing goes on)
The line under a structure holds: HSV replic up	HSV replic up primary fold	PKD1 inh	Insulin prom inh	RGS16-Gao HTS	GALR2 agonist	Insulin prom inh cell count
CN(C)CCCN1C(=O)C(=O)/C(=C(/O)c2ccc3c(c2)OCO3)C1c1ccccn1 (configuration not stated)
  nt	nt	-4	nt	nt	-1.8	nt
COc1cc(CCC(=O)OCC(=O)NCC2CCCCC2)cc(OC)c1OC
  i	0.98	-1	nt	93	nt	nt
O=C(CN1C(=O)c2ccccc2C1=O)Nc1cccnc1
  i	1	-10	nt	102	-0.5	nt
Cc1cccn2c(CNC3CCCc4ccccc43)c(C(=O)N3CCOCC3)nc12 (configuration not stated)
  i	0.97	nt	nt	109	nt	nt
COc1ccc(NC(=O)c2cc3n(n2)C(C(F)(F)F)CC(c2ccc(OC)cc2)N3)cc1 (configuration not stated)
  i	1	-8	32	104	0.8	169
Cc1oc(-c2cccc(Cl)c2)[n+]([O-])c1C
  i	0.59	-1	nt	104	0.7	nt
CN1CCC(OC(=O)c2cccc(Cl)c2)CC1
  i	0.97	-2	nt	98	nt	nt
Cc1ccc(CCNC(=O)C2CCC(=O)N2C(C)C)cc1 (configuration not stated)
  i	0.74	-15	nt	107	-1.9	nt
CCn1c(=O)cc(SCC(=O)NCc2ccco2)c2ccccc21
  i	1.1	13	nt	104	-0.8	nt
COc1ccc(-c2cc(C(F)(F)F)nc(SCC(=O)N3CCOCC3)n2)cc1OC
  i	1	-2	-77	103	-0.6	107
Cc1ncoc1C(=O)N1CCCC(C(=O)c2ccc(-c3ccccc3)c(F)c2)C1 (configuration not stated)
  i	1.1	0	nt	100	nt	nt

Source: PubChem (several laboratories)

Rows are unselected. Share with any hit: about 1.3%.
